RanGTP-Impb inh: disruptors of Ran-importin-beta complex formation – biochemical, FRET, CFP-Ran, YFP-importin-beta, homogeneous, primary screen | cell-free CFP-Ran/YFP-importin-beta FRET ratio | inhibition, % (test concentration not listed) | 300,000 compounds, 1.1% hits;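 active = most replicates above 15%; inconclusive = exactly half above 15%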;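 note: 0% = DMSO wells and 100% = Ran loaded with GDP instead of GTP; wells of about 40 µL received 100 nL stock; the first replicate is given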
Bfl-1 A1 inh: inhibitors of the anti-apoptotic protein A1, read as caspase activation. MEF A1-2A-BIM cells, Caspase-Glo 3/7 luminescence, 3 h; percent of clofoctol response, vehicle zero. 330,000 compounds, 0.066% hits. caspase activation, % (test concentration not listed);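 active = over half of replicate activation scores above 10%, or exactly half above 10 with the replicate mean above 10; inconclusive = replicate mean below 10 yet half the replicates above 10; inactive = over half of replicates below 10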;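 note: wells of about 30 µL received 50 nL stock; many hits fall short of the cut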
Vif A3G: inhibitors of Vif binding to APOBEC3G peptide, primary screen, biochemical, TR-FRET, GST-Vif 1-94, biotin-A3G peptide, dose response retest (AID 1117319); TR-FRET GST-Vif / biotin-A3G peptide binding; higher % means a stronger effect; test concentration not given here; strong numbers were not always called active; inhibition, %; hits with a dose series show IC50 in µM; 260,000 compounds, 0.57% hits;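 active = above the screen mean plus three standard deviations and confirmed in dose response; inconclusive = results disagree or hit not tested in dose response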;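 note: Vif residues 1-94 fused to GST binding biotinylated APOBEC3G peptide 110-148; 0% = full assay without inhibitor and 100% = GST in place of GST-Vif; retest series ran down from 100 µM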
Beta cell apopt: blocks beta cell apoptosis | INS-1E cytokine-induced death, ATP luminescence, 48 h; percent of positive-control rescue, neutral wells zero | protection from apoptosis, % (concentration not given with the values) | 300,000 compounds, 0.8% hits | AID 435005;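 active = all replicates at 75% or more, or half of them and the mean; inconclusive = half reach 75% but not the mean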;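 note: 0% = cytokine-treated negative control wells and 100% = positive control rescue; higher means more ATP so stronger rescue from cytokine killing; wells of about 40 µL received 100 nL stock; the first replicate is given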
Calb FLC: affects C. albicans growth with fluconazole. C. albicans CaCi-2 (fluconazole-resistant clinical isolate) + fluconazole, Alamar Blue growth, 48 h. growth inhibition, % (test concentration not listed). 300,000 compounds, 0.57% hits;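 active = most replicates above 75%; inconclusive = exactly half above 75%; inactive = most below 75%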;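 note: all wells also contain fluconazole at 8 µg/ml as a sub-toxic cotreatment; 0% = median of DMSO wells and 100% = median of geldanamycin control wells; wells of about 8 µL received 7.5 nL stock; the first replicate is given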
T cruzi repl: blocks replication of Trypanosoma cruzi | T. cruzi beta-gal in NIH3T3, luminescence, 90 h | inhibition, % (concentration not given with the values) | 300,000 compounds, 1.4% hits | AID 1885;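 active = mean inhibition across valid replicates above about 55%, limit read from the data; inconclusive = mean below that limit but half or more replicates reach it; inactive = mean below it, under half of replicates reach it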;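 note: signal also drops with host cell toxicity which is not excluded here; 0% = plate median of DMSO wells and 100% = zero luminescence signal; higher percent means less beta-gal luminescence so fewer parasites; stock transfer was 50 nL into about 50 µL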
Ecoli rRNA inh: selective bacterial rRNA inhibition in E. coli; E. coli WT GFP vs humanized-ribosome RFP mutants, fluorescence, 24 h; stronger effect = lower value; DMSO median 0, no signal -100; GFP signal change (wild-type ribosome), % (concentration not given with the values); 350,000 compounds, 1.6% hits; AID 720706;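 active = significant combined selectivity score with lowered wild-type GFP, culture density cut under 30%, mutant RFP and density less affected; inactive = any of these conditions unmet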; note: one replicate is shown; some compounds called inactive have numbers as strong as hits
MLL AF4-AF9 inh: MLL-AF4/AF9 protein interaction inhibition; P42568; AlphaScreen, biotin-AF4 peptide binding to FLAG-AF9; inhibition, % at 10 µM; 350,000 compounds, 0.47% hits;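 active = every replicate reaching a set inhibition limit, whatever the replicate mean, cut at about 25% in these data; inconclusive = mean inhibition reaches that limit but some replicates miss it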;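 note: 0% = plate neutral control median and 100% = total signal loss; the record names both 10 and 1 µM as test concentration; the first replicate is given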
Target sequence (P42568 whole entry, looked up): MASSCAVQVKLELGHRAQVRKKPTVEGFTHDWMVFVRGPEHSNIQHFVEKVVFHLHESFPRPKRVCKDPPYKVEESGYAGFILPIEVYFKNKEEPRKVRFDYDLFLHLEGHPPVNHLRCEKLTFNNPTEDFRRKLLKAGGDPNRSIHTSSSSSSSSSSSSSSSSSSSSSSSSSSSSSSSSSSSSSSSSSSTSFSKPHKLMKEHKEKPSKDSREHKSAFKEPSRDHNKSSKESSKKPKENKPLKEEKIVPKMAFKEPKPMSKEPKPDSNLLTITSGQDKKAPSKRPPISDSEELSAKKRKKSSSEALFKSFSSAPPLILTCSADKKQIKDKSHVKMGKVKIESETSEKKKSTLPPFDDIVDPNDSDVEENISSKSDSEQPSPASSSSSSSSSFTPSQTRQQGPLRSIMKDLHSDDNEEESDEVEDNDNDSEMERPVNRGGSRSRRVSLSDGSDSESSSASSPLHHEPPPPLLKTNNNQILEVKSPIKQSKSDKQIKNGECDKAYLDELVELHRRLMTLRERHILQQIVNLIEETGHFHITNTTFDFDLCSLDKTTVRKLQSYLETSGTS
Ecoli rRNA inh OD600: recorded beside Ecoli rRNA inh, whose call it bears; OD600 change, %; measured here: OD600 growth;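 optical density of the mix in the first replicate; 0 = DMSO median and -100 = no signal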
Ecoli rRNA inh RFP: also measured in Ecoli rRNA inh; calls as there; RFP signal change, %; measured here: RFP humanized mutant strains;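 first replicate; 0 = DMSO median and -100 = no signal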
The depositor's hits bear a star; ? = inconclusive; . = not tested or not shown; & = joins results of further samples.

structure,RanGTP-Impb inh,Ecoli rRNA inh RFP,Calb FLC,Vif A3G,Beta cell apopt,Ecoli rRNA inh,Bfl-1 A1 inh,MLL AF4-AF9 inh,T cruzi repl,Ecoli rRNA inh OD600
CCOC(=O)C1CCN(C(=O)c2oc3ccc(S(=O)(=O)N4CCCCCC4)cc3c2C)CC1,0.0,.,10,-3%,-3,.,1.1,.,52,.
COc1ccc(C2N(c3ccc(C)cc3)CCN2c2ccc(C)cc2)cc1O,4.1,1.9,-23,.,.,8,0.0,7.0,2,9
Cc1c(C#N)c2ccccc2n1CC(=O)NCc1ccccc1,3.9,.,-9,17%,-3,.,0.3,.,-11,.
O=C(CSc1nnc(-c2cccnc2)o1)Nc1nccs1,4.7,2.1,.,-3%,-3,10,0.9,-9.2,-27,12
CC1(C)Cc2c(cnn2-c2cccc(F)c2)C(NC(=O)Cn2cccn2)C1 (stereo not given),-1.4,-2.3,9,.,1,3,0.8,1.4,5,12
CCCNC(=O)[C@@H]1CCCN1C(=O)[C@@H]1Cc2ccccc2CN1,-6.0,-4.3,31,-7%,-3,4,0.1,-0.3,-4,-2
Cc1ccc(C)c(NC(=O)COC(=O)CC2CC3CCC2C3)c1 (stereo not given),.,-5.2,.,-4%,0,-23,0.0,-0.8,.,-28
Nc1cccc(Oc2ccc3c(c2)C(=O)NC3=O)c1,1.2,3.0,6,.,-6,12,0.2,3.3,-3,3
O=C1c2ccccc2C(=O)c2cc(NC(=O)C3CC3)ccc21,-1.0,-13,17,.,6,-6,1.7,1.2,10,-3
Cc1c(NC(=O)c2cc(-c3ccccc3)on2)c(=O)n(-c2ccccc2)n1C,-1.7,3.6,1,-3%,.,4,1.0,4.6,-10,1
Cc1cc(OC(=O)c2c(C)cc(O)cc2O)cc(O)c1C(=O)O,-1.5,6.5,-1,.,1,3,0.9,-0.5,-22,2
O=C(CC1NC2CCCCC2NC1=O)Nc1cccc(C(F)(F)F)c1 (stereo not given),0.2,.,-1,0%,-2,.,0.1,.,-9,.
O=C(Nc1c2c(nn1-c1ccccc1)CS(=O)(=O)C2)c1ccco1,-1.7,2.9,0,-2%,5,11,0.9,1.1,-9,10
Cc1ccc(C(=O)Nc2ccc3nc(C)sc3c2)s1,4.0,.,4,-5%,1,.,1.3,.,-8,.
COc1ccc(CNC(=O)CC2C(=O)NCCN2C2Cc3ccccc3C2)cc1 (stereo not given),-1.9,0.1,5,.,-5,-2,0.0,1.6,-7,-9

(cont.)
structure,RanGTP-Impb inh,Ecoli rRNA inh RFP,Calb FLC,Vif A3G,Beta cell apopt,Ecoli rRNA inh,Bfl-1 A1 inh,MLL AF4-AF9 inh,T cruzi repl,Ecoli rRNA inh OD600
COc1ccc(NC(=O)Nc2ccc3oc(C)nc3c2)cc1,7.1,3.0,-3,6%,-3,6,-5.6,-2.7,-2,9
OCCn1c(-c2ccccc2)csc1=Nc1ccccc1,4.1,.,-56,10%,-4,.,-0.7,.,-7,.
CC(C)(C)C(=O)Nc1ccccc1C(=O)NCCC(=O)Nc1ccccc1,1.5,-2.3,1,.,-3,0,0.4,9.9,-13,-1
COc1ccc(NC(=O)CSCc2cc(=O)n3nc(C4CC4)sc3n2)cc1,-1.8,-1.8,-5,.,-2,7,0.7,0.9,-8,-2
O=S(=O)(c1ccc(F)cc1)N1CCN(C(=S)NC2CCCC2)CC1,4.4,.,3,.,0,.,0.1,.,9,.
COc1ccc(N2CCN(C(=O)c3c(C)nn(-c4ccccc4)c3C)CC2)cc1,-0.2,.,-7,.,-2,.,0.2,.,-9,.
COc1ccc(CSCC(=O)N/N=C/c2ccc(OCC(=O)N3CCCCC3)cc2)cc1,5.8,3.0,12,30%,-2,0,0.4,5.5,-17,1
CCOc1ccc(N(C(=O)C2CCCO2)C2C=CS(=O)(=O)C2)cc1 (stereo not given),-0.8,0.1,-5,11%,1,8,1.3,-1.4,-6,6
CS(=O)(=O)n1nc(OC(=O)c2cccs2)cc1N,3.0,-1.8,-1,.,-8,9,2.5,-12,-9,22
CCCCOc1ccc(C(=O)NCCc2cccs2)cc1,7.3,.,33,0%,-4,.,-1.7,.,2,.
COC(=O)c1scc2c(Oc3ccccc3)cc(C(F)(F)F)nc12,0.8,.,2,-1%,0,.,1.0,.,8,.
COc1cc(NS(=O)(=O)c2ccc3ccccc3c2)c2ncccc2c1,3.7,.,89*,.,.,.,-1.4,-8.7,77*,.
O=C(CN(Cc1ccco1)C(=O)CNS(=O)(=O)c1ccccc1)NCc1ccc(F)cc1,6.5,.,-7,0%,-4,.,-0.1,.,6,.
Cc1cc(=O)oc2cc(OCC(=O)OCC(=O)NCc3ccc4c(c3)OCO4)ccc12,-1.0,.,5,17%,-5,.,0.8,.,4,.
c1ccc(CN2CCN(c3ncnc4nc[nH]c34)CC2)cc1,?,0.7,3,-1%,-6,9,0.1,0.5,-12,7

Continuation.
structure,RanGTP-Impb inh,Ecoli rRNA inh RFP,Calb FLC,Vif A3G,Beta cell apopt,Ecoli rRNA inh,Bfl-1 A1 inh,MLL AF4-AF9 inh,T cruzi repl,Ecoli rRNA inh OD600
CN(c1ccc(OCC(=O)NC2=NCCS2)cc1)S(=O)(=O)c1ccc(F)cc1,-0.5,-4.3,0,7%,-14,2,0.7,-4.6,-20,-4
CCn1c2ccccc2c2cc(NC(=O)CNCc3ccccc3OC)ccc21,-2.2,-21,-7,.,12,-53,0.1,2.0,3,-80
Cc1ccc(CNC(=O)c2cc(-c3ccccc3C)nn2CC2CC(c3cccnc3)=NO2)cc1 (stereo not given),.,-4.2,.,.,3,-2,0.0,-21,.,-17
O=C(Nc1ccc(CN2CCCCC2)cc1)Nc1ccccc1Cl,-3.1,1.1,-7,.,-7,5,-1.0,4.7,-27,-7
CC(=O)C1=C(C)Nc2cc(C(F)(F)F)ccc2S1,4.6,.,3,7%,2,.,0.4,.,-20,.
O=C(C=C=Nc1ccccc1)C(=O)N=C=Cc1ccccc1,2.6,1.8*,4,18%,-37,-31*,0.0,-0.4,-35,8.5*
O=C(NCCOc1ccc(Cl)cc1)C1CC(=O)N(c2ccc(F)cc2)C1 (stereo not given),-3.9,0.0,-3,2%,-3,-9,-0.2,-0.3,-5,-4
COc1cccc(/C=C2\SC(=N)N(c3ccc(F)cc3)C2=O)c1,-1.8,.,-5,-5%,2,.,1.3,0.2,-16,.
Cn1cccc1C(=O)Nc1nccs1,-0.9,.,4,?,-8,.,-5.5,.,-8,.
Cn1c(CN2CCCC2)nc2cc(NC(=O)c3cccs3)ccc21,2.7,.,9,.,-6,.,-0.2,-5.0,-16,.
Cc1ccc(CC(=O)Nc2nc3ccccc3[nH]2)cc1C,0.3,.,5,4%,9,.,-0.2,.,11,.
CCOC(=O)c1cn(CC)c2ccc(Br)cc2c1=O,-1.1,.,12,-2%,1,.,0.2,.,-5,.
CC(/C=N/N1C(=O)CSC1=S)=C\c1ccccc1,2.0,6.6,-3,27%,0,1,-0.7,-0.6,-9,0
CC(C)Cn1c(=O)c(C(=O)N/N=C/c2cccc(F)c2)c(O)c2ccccc21,1.0,-3.4,3,.,13,7,-0.9,0.3,-18,0
COc1ccc(N2CCN(Cc3nc4ccccc4n3C)CC2)cc1,-1.8,.,10,21%,-1,.,1.0,.,-9,.

(cont.)
structure,RanGTP-Impb inh,Ecoli rRNA inh RFP,Calb FLC,Vif A3G,Beta cell apopt,Ecoli rRNA inh,Bfl-1 A1 inh,MLL AF4-AF9 inh,T cruzi repl,Ecoli rRNA inh OD600
COC(=O)N1CCc2c(sc(NC(=O)C3=COCCO3)c2C#N)C1,4.3,-3.1,28,1%,.,2,0.6,-13,-12,2
Cc1ccc2c(c1)N(CCCC(=O)NCc1cccnc1)C(=O)CO2,-1.7,-3.4,3,7%,-5,10,-0.5,3.8,-6,5
O=[N+]([O-])c1ccc(Cl)cc1N/N=C/c1ccncc1,1.5,1.3,5,5%,-2,9,-0.2,-2.4,9,9
NS(=O)(=O)c1ccc(CCNCC#Cc2ccccc2)cc1,2.0,-1.0,-10,.,-7,2,2.8,1.0,-27,4
O=C(CCCNC(=O)c1ccc(Cl)cc1)Nc1cccc(S(=O)(=O)N2CCCCC2)c1,.,-1.5,.,24%,2,-11,0.2,0.9,.,-34
O=C(NC1CCCCC1)N1CCC(c2nc(-c3ccc(S(=O)(=O)N4CCCC4)cc3)no2)CC1,0.1,7.6,-11,-6%&-7%,20,4,0.3,-19,-20,9
Cc1ccc2cc(CCNC(=O)C(C)(C)C)c(=O)[nH]c2c1,-1.4,1.6,1,5%,-1,11,-0.1,-4.6,-4,7
CCN(C[C@H]1N[C@@](CC)(C(=O)OC)[C@H]2C(=O)N(Cc3ccccc3)C(=O)[C@@H]12)S(=O)(=O)c1ccccc1,.,6.7,.,-9%,-3,-11,1.1,-2.3,.,-23
COc1ccc(NC(=S)Nc2cccc(Cl)c2Cl)cc1OC,3.1,3.8,-3,8%,-5,-12,-0.5,0.7,-15,-16
Cc1cc(NC(=O)Cn2c(=O)n(CCCCC(=O)NC3CCN(Cc4ccccc4)CC3)c(=O)c3ccccc32)n[nH]1,-1.2,0.0,?,-1%,-2,10,0.0,5.5,-9,8
O=C(CCCC(=O)N(CC(=O)NC1CCCC1)c1cccc(F)c1)Nc1ccccn1,-9.7,3.0,-4,.,-4,3,0.2,-2.5,3,7
CCO[C@@H]1OC(C(=O)N2CCN(C)CC2)=C[C@H](c2ccc(C(F)(F)F)cc2)[C@H]1CCCO,-2.7,-4.0,5,-12%,4,4,-1.4,0.8&-1.8,-16,21
COC(=O)c1ccccc1NC(=O)c1ccc2c(c1)C(=O)N(Cc1ccco1)C2=O,?,.,1,.,-2,.,-0.2,.,-6,.
c1cc(OCCCN2CCCCC2)ccc1CN1CCCCC1,-2.6,0.3,-4,8%,-6,10,-1.3,-9.3,23,21

Screening data: PubChem, several laboratories

Not all compounds are listed. The share of hits here may be higher or lower than overall.
